VDR inhibitor = blocks the human vitamin D receptor; Potency, µM, for the others: max response, negative = inhibition, usual class: inhibitors; AID 504847; 400,000 compounds, 0.93% hits; VDR-SRC2-3 peptide fluorescence polarization, 2 h; active = well fitted inhibition curve with a large enough effect; inconclusive = small, poorly fitted or top-dose-only effect, or another doubt; inactive = no such curve, though single readings can be large or run the other way; note: series mostly up to about 120 µM
Target sequence (P11473 whole entry, looked up): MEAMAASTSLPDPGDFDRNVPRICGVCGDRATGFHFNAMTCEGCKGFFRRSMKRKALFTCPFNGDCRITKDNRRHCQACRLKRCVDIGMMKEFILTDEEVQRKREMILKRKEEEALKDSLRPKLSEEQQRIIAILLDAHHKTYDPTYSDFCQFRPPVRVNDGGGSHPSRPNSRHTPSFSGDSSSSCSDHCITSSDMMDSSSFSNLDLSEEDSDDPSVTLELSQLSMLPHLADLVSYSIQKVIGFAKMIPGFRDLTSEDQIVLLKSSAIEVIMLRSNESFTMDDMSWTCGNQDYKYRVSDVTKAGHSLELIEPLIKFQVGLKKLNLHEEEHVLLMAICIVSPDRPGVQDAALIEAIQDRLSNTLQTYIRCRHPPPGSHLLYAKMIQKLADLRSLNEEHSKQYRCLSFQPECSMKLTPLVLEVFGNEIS
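VDR–SRC2-3 interaction, FP format. Cmpds 23 nl via pintool, brief spin, 2 h ambient incubation.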
Numbers without * were called inactive; ? = inconclusive; & = joins results of further samples. % is set by controls: 0 for no effect and ±100 for the full control effect; potency is the fitted concentration of half-maximal effect. The list is partial; the hit share may differ from the screen's.

SMILES	VDR inhibitor
COC(=O)c1ccc(NC(=S)N2CCN(Cc3ccccc3OC)CC2)cc1	-2%
O=C(Cn1cc(SCc2ccc(F)cc2)c2ccccc21)N1CCCCCC1	-2%
O=C(CSc1nc2nn(-c3ccccc3)c(=O)c-2c2n1CCCCC2)c1ccc(OC(F)F)cc1	-8%
CCOc1ccccc1C(=O)N1CCN(CCc2ccccn2)CC1	7%
CCn1cc2c(n1)-c1c(oc(C(=O)Nc3cccc(C(F)(F)F)c3)c1C)CC2	6%
OC(COCc1cccs1)CN1CCN(c2ccccn2)CC1 (configuration not stated)	16%
O=C(Nc1ccccn1)c1sc2cc([N+](=O)[O-])ccc2c1Cl	32µM*
Cc1cc(C)cc(NC(=O)CSc2nnc(C3CC3)n2CC2CCCO2)c1 (configuration not stated)	-14%
O=C(CCS(=O)(=O)c1ccc(F)cc1)N1CCOCC1	2%
Cc1ccccc1OCC(=O)Nc1ccc2c(c1)n(C)c(=O)n2C	7%
O=C(CSc1nc(-c2cccs2)cc(C(F)(F)F)n1)Nc1cc(OCC(F)(F)C(F)F)cc([N+](=O)[O-])c1	-8%
O=C(/C=C\c1cccs1)c1c(O)ccc2ccc(=O)oc12	-18%
C=CCNC(=O)CN1N=C(c2ccc(C)cc2)CCC1=O	-12%
Oc1ccccc1-c1nnc(SCCN2CCOCC2)n1Cc1ccccc1	-10%
O=C(/C=C/c1ccco1)NC(=S)Nc1nc(-c2ccc(Cl)cc2)cs1	-1%
Cc1c(C(=O)Nc2cccnc2)oc2ccc(Br)cc12	18%
COc1cc2cc(C(=O)Nc3ccccc3)c(N)nc2cc1OC	-19%
Cn1cnnc1SCC(=O)NC(=O)NCc1ccccc1	-3%
COC(C[C@@H]1O[C@H]1[C@@H](O)COCc1ccccc1)OC	?
O=C(Cc1ccccc1Cl)Nc1ccc(S(=O)(=O)Nc2nccs2)cc1	0%

Filtered by structure, the compounds so far containing a carbonyl joined to an NH by a bond outside any ring.
SMILES	VDR inhibitor
CCn1cc2c(n1)-c1c(oc(C(=O)Nc3cccc(C(F)(F)F)c3)c1C)CC2	6%
O=C(Nc1ccccn1)c1sc2cc([N+](=O)[O-])ccc2c1Cl	32µM*
Cc1cc(C)cc(NC(=O)CSc2nnc(C3CC3)n2CC2CCCO2)c1 (configuration not stated)	-14%
Cc1ccccc1OCC(=O)Nc1ccc2c(c1)n(C)c(=O)n2C	7%
O=C(CSc1nc(-c2cccs2)cc(C(F)(F)F)n1)Nc1cc(OCC(F)(F)C(F)F)cc([N+](=O)[O-])c1	-8%
C=CCNC(=O)CN1N=C(c2ccc(C)cc2)CCC1=O	-12%
O=C(/C=C/c1ccco1)NC(=S)Nc1nc(-c2ccc(Cl)cc2)cs1	-1%
Cc1c(C(=O)Nc2cccnc2)oc2ccc(Br)cc12	18%
COc1cc2cc(C(=O)Nc3ccccc3)c(N)nc2cc1OC	-19%
Cn1cnnc1SCC(=O)NC(=O)NCc1ccccc1	-3%
O=C(Cc1ccccc1Cl)Nc1ccc(S(=O)(=O)Nc2nccs2)cc1	0%

Of the compounds above, these contain two or more sulfur atoms.
SMILES	VDR inhibitor
O=C(CSc1nc(-c2cccs2)cc(C(F)(F)F)n1)Nc1cc(OCC(F)(F)C(F)F)cc([N+](=O)[O-])c1	-8%
O=C(/C=C/c1ccco1)NC(=S)Nc1nc(-c2ccc(Cl)cc2)cs1	-1%
O=C(Cc1ccccc1Cl)Nc1ccc(S(=O)(=O)Nc2nccs2)cc1	0%

Additional records:
SMILES	VDR inhibitor
COc1ccc2cc(C#N)c(N3CCN(C(=O)c4ccccc4C)CC3)nc2c1	15%
Cc1cc(C(=O)Nc2ncn(Cc3ccc(F)cc3)n2)ccc1[N+](=O)[O-]	17%
CCOc1ccc(-n2c(SCC(=O)N3CCCCCC3)nc3c([nH]c4ccccc43)c2=O)cc1	-8%
Cc1ccccc1C(=O)N1CCC(C(=O)Nc2cccc(S(=O)(=O)N3CCCCC3)c2)CC1	?
CSc1ncc(OCc2ccccc2)c(=O)[nH]1	-10%
Cc1c([N+](=O)[O-])nnn1-c1cc(Cl)cc(Cl)c1	0%
Oc1ccc(O)cc1	-1%&-3%
CC(=O)c1ccc(NC(=O)CSc2ccc(-c3ccc4c(c3)OCO4)nn2)cc1	5%
CC(C)CC(C(=O)Nn1cnnc1)N1C(=O)c2ccccc2C1=O (configuration not stated)	3%
Cc1ccc(NC(=O)CN(C)CCOc2ccccc2)c([N+](=O)[O-])c1	20%
Cc1nc2scc(C)n2c(=O)c1S(=O)(=O)Nc1ccc(F)cc1	2%
CC(C)NC(=O)CCn1ccc2cc(S(=O)(=O)N3CCCC3)ccc21	-8%
CCOC(=O)c1[nH]cnc1C(=O)Nc1ccncc1	-2%
CCCC1(C)Nc2ccccc2-c2nc3ccccc3n21 (configuration not stated)	3%
CCOC(=O)C1CCCN(C(=O)COC(=O)c2cc(=O)c3ccccc3o2)C1 (configuration not stated)	13%
COc1ccccc1NC(=O)C1CCCN(S(=O)(=O)c2ccc3c(c2)CC(C)N3C(C)=O)C1 (configuration not stated)	-7%
O=c1oc(Nc2ccccc2Cl)nc2ccccc12	?
COc1ccc(NC(=O)/C=C/c2cc(OC)c(OC)c(OC)c2)cn1	8%
COc1ccc(CC(=O)Nc2nc3ccccc3[nH]2)cc1	1%
O=C1Nc2ccc([N+](=O)[O-])cc2OC1CCN1CCN(Cc2ccccc2)CC1 (configuration not stated)	6%
Cc1cccc(C(=O)OC2CCOC2=O)c1C (configuration not stated)	4%
CC(C)=CC[N+]1(C)CCCCC1	5%
CCCCCCCCNC(=O)C(CCC(=O)OCc1ccccc1)NC(C)=O (configuration not stated)	11%
O=C(NCc1ccccn1)C1CCN(S(=O)(=O)c2ccccc2F)CC1	2%
CCC(=O)Nc1c(-c2ccc(Cl)cc2)c(=O)c2ccccc2n1C	7%
CC1=C([N+](=O)[O-])C(c2ccccc2)C2=C(N1)c1ccccc1C2=O (configuration not stated)	-22%
Cc1ccccc1NC(=O)Cn1c(=O)n(CCc2ccccc2)c(=O)c2ccccc21	-11%
CC(C)C(=O)NCC1(N(C)C)CCCCC1	0%
CCC(C(=O)OCC(=O)Nc1c(C)nn(-c2ccccc2)c1C)c1ccccc1 (configuration not stated)	-14%
O=S(=O)(c1ccccc1)c1nc(-c2ccc(Cl)cc2Cl)oc1N1CCCCCC1	7%
CC(=O)C1=C(c2ccc(Cl)c(Cl)c2)N(C(C)=O)n2c(nnc2-c2ccccc2)S1	-4%
N=C1C(c2nc3ccccc3s2)=C(O)CN1NC(=O)c1ccccc1[N+](=O)[O-]	-15%
CCOc1ccc(NC(=O)CN(C)C(=O)/C=C/c2ccc(S(=O)(=O)N3CCCCCC3)cc2)cc1OCC	0%
Cc1cc(OCC(=O)Nc2cc(-c3nc4ncccc4o3)ccc2C)ccc1Cl	-2%
COC(=O)c1ccc(COc2ccc3c(C)c(C)c(=O)oc3c2)o1	9%
CC(C)c1nnc(NC(=O)CCC(=O)Nc2ccc(F)cc2)s1	-9%
Cc1cc(C(=O)NN=C2CCCCCCC2)c2ccccc2n1	-5%
COC(=O)Nc1nc(C)c(C(=O)c2ccccc2)s1	18%
COc1cc(NS(=O)(=O)c2cc(C(=O)NCCc3ccccn3)ccc2OC)cc(OC)c1	-1%
N#CC1(NC(=O)CN2CCc3ccccc3C2)CCCC1	-4%
COc1ccc2nc(NC(=O)Nc3cccc4ccccc34)sc2c1	-10%
CCOCCn1c(=O)c2c(nc3n2CCCN3CCc2ccccc2)n(C)c1=O	-22%
O=S(=O)(Nc1cccc(C(F)(F)F)c1)c1ccc(-c2cnc(C3CC3)o2)cc1	3%
O=C(Nc1c2c(nn1-c1ccc(F)cc1)CS(=O)C2)c1ccc(S(=O)(=O)N2CCOCC2)cc1 (configuration not stated)	-3%
Cc1ccc(C)c(Cn2c(=O)n(-c3ccc(Cl)cc3)c(=O)c3c4c(sc32)CCC4)c1	12%
Cc1cccc(C(=O)NCCN2CCOCC2)c1[N+](=O)[O-]	-5%
C=CC[C@@H](CC(=O)N[C@@H](CO)Cc1ccccc1)C(=O)N[C@H](COC(=O)[C@@H](CC=C)CC(=O)OC(C)(C)C)Cc1c[nH]c2ccccc12	-9%
COc1ccccc1NC(=O)Nc1ccnn1C1CCN(C(=O)c2ccccn2)CC1	-7%
COC(=O)[C@@H]1[C@@H](C)OC(=O)N[C@H]1c1ccccc1	1%
O=C1NN(c2ccc(F)cc2)C(=O)/C1=C\C=C\c1ccco1	?
CCOC(=O)C1CCC(CN(Cc2cccc(Br)c2)S(=O)(=O)c2ccc(C)cc2)CC1 (configuration not stated)	-4%
CS(=O)(=O)Nc1ccc(C2=NN(C(=O)c3ccco3)C(c3ccco3)C2)cc1 (configuration not stated)	4%
Cc1nn(-c2ccc(F)cc2)c2c1cc(C#N)c1nc3ccccc3n12	-12%
CC1CCCC(NC(=O)Nc2cccs2)C1C (configuration not stated)	4%
CCOc1nc(-c2ccccc2)ccc1-c1noc(-c2ccc(C)cc2)n1	11%
O=C1COc2ccc(C(=O)c3ccccc3)cc2CN1	-6%
CC(C)c1ccc(Nc2nc(Nc3ccc(Cl)cc3)nc(N3CCOCC3)n2)cc1	6%
CC(C)C(=O)N=C1SC2CS(=O)(=O)CC2N1Cc1ccc(Cl)cc1 (configuration not stated)	5%
Cc1c2c(nc3ccccc13)CC(C)(C)CC2=O	-29%
CC(=O)N1CCN(CC(=O)Nc2ccccc2Sc2ccccc2)CC1	-13%
Later entries
SMILES	VDR inhibitor
O=C1COc2ccc(C(=O)COC(=O)c3ccccn3)cc2N1	-4%
CCc1ccc(NC(=O)c2ccc(F)c(S(=O)(=O)N3CCN(c4ccc(OC)cc4)CC3)c2)cc1	10%
CC(C)C(C)/C=C/C(C)C1CCC2C3=CCC4CC(=O)CC[C@@]4(C)C3CC[C@]21C (some centres not stated)	-10%
COc1ccc(CNC(=O)CSc2nc3ccc(N)cc3s2)cc1	-18%
NC(=O)NCCCC(=O)OCC(=O)c1ccc2ccccc2c1	4%
COc1ccc(C2SCCN2C(=O)c2ccc([N+](=O)[O-])cc2)cc1 (configuration not stated)	-17%
CCOC(=O)c1c(C)c(C(=O)NCc2ccccn2)c(C)n1CC	-2%
CCCn1cnc2c(c1=O)c1nc3ccccc3nc1n2CCc1ccccc1	-3%
C=CCn1c(C)cc(C2=NNC(=NCC)SC2)c1C	8%
CC(=O)Nc1ccc(N2CCN(Cc3ccccc3)CC2)cc1	4%
O=C1CC(c2cc(-c3ccccc3)no2)C1	-13%
O=S(=O)(c1ccccc1)c1nc(-c2ccco2)oc1NCCN1CCOCC1	19%
Cc1c(C(=O)O)sc2ncn(C)c(=O)c12	22%
O=C(CNC(=O)c1ccccc1O)N/N=C/c1ccccn1	13%
Cc1ccc(NCc2nnc(SCC(=O)OC3CCCCC3)o2)c(C)c1	-13%
COc1ccc(NC(=O)c2oc3ccccc3c2NC(=O)c2cccc(F)c2)c(OC)c1	4%
CCOC(=O)[C@H]1[C@H]2COc3ccccc3[C@@H]2N2C(=O)CN(CC3CCCO3)C(=O)[C@@]12C (some centres not stated)	0%
CC(C)c1ccc(CNNC(=O)c2ccccc2)cc1	4%
COc1ccc(-n2c(=O)cc(N3CC(C)OC(C)C3)[nH]c2=O)cc1 (configuration not stated)	1%
Nc1ccc(N2CCN(C(=O)c3ccco3)CC2)cc1	-6%&-15%
Cc1ccc(CNC(=O)CN2c3cccc4cccc(c34)S2(=O)=O)cc1	4%
O=S(=O)(c1ccccc1)N(CC(O)CN1CCCC1)c1ccccc1 (configuration not stated)	12%
COc1cccc(Nc2ncnc3c2cnn3C)c1	0%
CCOc1ccc(-c2nonc2NC(=O)c2ccccc2C)cc1	4%
COc1ccccc1NC(=O)c1cc(C(=O)Nc2ccccc2OC)n(C)n1	-1%
Cn1c(N)c(C(=O)CSc2ccccn2)c(=O)n(C)c1=O	-15%
C/C(=N/OC(=O)c1ccc(C(F)(F)F)cc1)c1oc(C)nc1C	-8%
CC(C)c1[nH]nc2c1C1(CCN(Cc3ccccc3)CC1)C(C#N)=C(N)O2	-6%
CC(=O)Nc1ccc2c(c1)Cc1cc(N3C(=O)C=CC3=O)ccc1-2	28µM*
C/C(=N/NC(=O)c1ccc(C)s1)c1cccnc1	-5%
CCOc1ccc(/C=N/NC(=O)CCC(=O)Nc2ccc(F)cc2)cc1	15%
NC(Cn1ccc(=O)c(O)c1)C(=O)O (configuration not stated)	17%
Cc1ccc(OCc2ccc(C(=O)NNC(=S)NCC3CCCO3)o2)c([N+](=O)[O-])c1 (configuration not stated)	-21%
CCOc1ccc(CCNC(=O)COC(=O)/C=C/c2ccc(OCC#N)c(OC)c2)cc1OCC	-9%
COC(C[C@H]1O[C@@H]1C(=O)[C@H](C)OCc1ccccc1)OC	-8%
O=C(COc1ccc2c3c(c(=O)oc2c1)CCCC3)N1CCN(c2ccccc2)CC1	-2%
COC(=O)[C@]12C(=O)NC[C@H](CN1c1ccc(Cl)c(C)c1)N2C	-7%
COc1ccccc1-c1c(C(F)(F)F)oc2cc(OC(=O)c3ccccc3[N+](=O)[O-])ccc2c1=O	16%
Cc1ccn(Cc2n[nH]c(=S)n2Cc2ccccc2)n1	-11%
CC1(C)CC(c2csc(N)n2)CCO1 (configuration not stated)	7%
NC(=O)C1CCN(C(=S)NCc2ccc3c(c2)OCO3)CC1	1%
O=C(NC1(C(F)(F)F)N=C(c2ccccc2)NC1=O)c1ccccc1F (configuration not stated)	-4%
CCOC(=O)CC(NC(=O)c1cc2cccc(OC)c2oc1=O)c1cccc([N+](=O)[O-])c1 (configuration not stated)	?
OC(COc1ccc(Cl)cc1)CN1CCN(c2ccccn2)CC1 (configuration not stated)	7%
CCc1nnc(NS(=O)(=O)c2ccc(N3C(=O)C4CC=C(Cl)CC4C3=O)cc2)s1 (configuration not stated)	-9%
O=C1CN(S(=O)(=O)c2ccccc2Cl)CCN1	-14%
CC(C)N(Cc1ccccc1)C(=O)Cn1c(=O)cnc2ccccc21	-14%
Cc1ccc(S(=O)(=O)Nc2nc3ccc(N)cc3s2)cc1	-5%
O=C(CCC(=O)N1CCN(c2ccccc2F)CC1)c1ccc(Cl)s1	-30%
